# Ecoli rRNA inh: reduced GFP signal of wild-type E. coli, primary screen, bacterial rRNA inhibitor project, GFP/RFP fluorescence, OD600, single point; AID 720706, 2013; actives 1.6% (n = 350,000); GFP signal change (wild-type ribosome), % (no concentration beside the values); E. coli WT GFP vs humanized-ribosome RFP mutants, 24 h; active compounds read low; DMSO median 0, no signal -100;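 active means significant combined selectivity score with lowered wild-type GFP, culture density cut under 30%, mutant RFP and density less affected; inactive means any of these conditions unmet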; further: one replicate is shown; some compounds called inactive have numbers as strong as hits
# AF4-AF9 inh: inhibitors of AF4 peptide binding to AF9, primary screen, biochemical, AlphaScreen, biotin-AF4 peptide, FLAG-AF9, single point. inhibition, % at 10 µM. Protein AF-9 (Homo sapiens), P42568. actives 0.47% (n = 350,000);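 active means every replicate reaching a set inhibition limit, whatever the replicate mean, cut at about 25% in these data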;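 further: 0% = plate neutral control median and 100% = total signal loss; the record names both 10 and 1 µM as test concentration; the first replicate is given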
# Target sequence (P42568 whole entry, looked up): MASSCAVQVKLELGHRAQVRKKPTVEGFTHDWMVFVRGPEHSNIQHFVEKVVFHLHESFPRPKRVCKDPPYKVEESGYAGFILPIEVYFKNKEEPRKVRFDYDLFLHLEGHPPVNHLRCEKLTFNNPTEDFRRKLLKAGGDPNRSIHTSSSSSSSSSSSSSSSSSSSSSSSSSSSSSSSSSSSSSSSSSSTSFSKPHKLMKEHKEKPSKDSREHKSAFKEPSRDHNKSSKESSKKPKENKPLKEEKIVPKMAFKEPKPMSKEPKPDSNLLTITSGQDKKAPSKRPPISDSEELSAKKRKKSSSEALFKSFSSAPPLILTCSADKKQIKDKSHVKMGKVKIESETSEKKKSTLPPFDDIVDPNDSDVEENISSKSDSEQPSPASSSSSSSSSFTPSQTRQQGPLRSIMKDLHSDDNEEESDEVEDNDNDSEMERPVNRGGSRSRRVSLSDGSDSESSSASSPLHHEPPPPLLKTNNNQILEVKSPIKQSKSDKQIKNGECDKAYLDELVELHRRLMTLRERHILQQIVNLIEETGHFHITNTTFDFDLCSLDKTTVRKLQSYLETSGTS
# HNF4A DNA FP: change in binding of human HNF4A to DNA, primary screen, biochemical, fluorescence polarization, FITC-DNA | AID 1224865, 2016 | 1 h | actives 0.3% (n = 360,000) | activity change, % at 10 µM; in the data active means activity change above about 30%, passing the limit was not always enough;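 further: controls were the assay level and a saturating level of protein; the project sought stronger binding though the title names inhibitors; some compounds called inactive have numbers as strong as hits; positive values seem to mean higher polarization but the record does not say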
# Vif TR-FRET: inhibitors of Vif binding to APOBEC3G peptide, primary screen, biochemical, TR-FRET, GST-Vif 1-94, biotin-A3G peptide, dose response retest (AID 1117319); actives 0.57% (n = 260,000); inhibition, %; hits with a dose series show IC50 in µM; TR-FRET GST-Vif / biotin-A3G peptide binding; higher % means a stronger effect; test concentration not given here; strong numbers were not always called active;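 active means above the screen mean plus three standard deviations and confirmed in dose response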;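 further: Vif residues 1-94 fused to GST binding biotinylated APOBEC3G peptide 110-148; 0% = full assay without inhibitor and 100% = GST in place of GST-Vif; retest series ran down from 100 µM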
# E coli growth: E. coli growth inhibition, primary screen, OD600; actives 0.21% (n = 330,000); Escherichia coli growth, 23 h; active compounds read low; OD600 absorbance (concentration not given with the values);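 active means OD600 absorbance below the run mean of sample wells minus 3.6 SD, in any replicate, cut at about 0.56 in these data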;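 further: stock transfer was 300 nL into about 60 µL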
# FGF22 binding: binders of human FGF22 protein, primary screen, FGF22 synaptogenesis inhibitor project, biophysical, thermal shift, single point. Fibroblast growth factor 22 (Homo sapiens), Q9HCT0. recombinant FGF22 thermal shift, SYPRO orange fluorescence; percent of sucrose octasulfate shift, DMSO zero. calls only at 9.99 µM. actives 1.5% (n = 340,000). AID 651658, 2012;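 active means melting point raised past a set limit in the mean and every replicate; three in four hits are not shown here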
# Target sequence (Q9HCT0 whole entry, looked up): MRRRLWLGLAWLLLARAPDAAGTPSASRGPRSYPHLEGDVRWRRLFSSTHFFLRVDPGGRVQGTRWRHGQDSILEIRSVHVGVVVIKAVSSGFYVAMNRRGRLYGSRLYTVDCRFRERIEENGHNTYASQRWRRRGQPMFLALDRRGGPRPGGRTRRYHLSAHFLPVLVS
# ALR inh: inhibitors of human ALR sulfhydryl oxidase, primary screen, biochemical, H2O2 detection, HRP-luminol luminescence, single point. AID 485317, 2010. FAD-linked sulfhydryl oxidase ALR (Homo sapiens), P55789. purified ALR, DTT oxidation. inhibition, % (concentration not given with the values). actives 3.8% (n = 290,000);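 active means mean and each replicate at 75% or more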;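 further: stock transfer was 7.5 nL into about 7.5 µL; 0% = neutral wells and 100% = wells with inactivated enzyme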
# Target sequence (P55789 whole entry, looked up): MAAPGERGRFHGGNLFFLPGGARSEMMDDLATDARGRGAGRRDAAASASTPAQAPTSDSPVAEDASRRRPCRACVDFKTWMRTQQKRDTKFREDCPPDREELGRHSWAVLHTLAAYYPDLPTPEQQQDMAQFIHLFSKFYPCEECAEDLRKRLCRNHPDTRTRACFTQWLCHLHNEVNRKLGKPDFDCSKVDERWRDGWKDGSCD
# Ecoli rRNA inh OD600: recorded beside Ecoli rRNA inh, whose call it bears; OD600 change, %; measured here: OD600 growth;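 optical density of the mix in the first replicate; 0 = DMSO median and -100 = no signal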
# Ecoli rRNA inh RFP: second read-out of Ecoli rRNA inh, no call of its own (marks repeat the call); RFP signal change, %; measured here: RFP humanized mutant strains;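 first replicate; 0 = DMSO median and -100 = no signal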
# * marks the source's active call; other numbers are inactive results; i = inactive; x = not tested or not shown; & = joins results of further samples. This is a subset; rates above refer to the full screens.
SMILES,Ecoli rRNA inh,Ecoli rRNA inh OD600,Ecoli rRNA inh RFP,AF4-AF9 inh,HNF4A DNA FP,Vif TR-FRET,E coli growth,FGF22 binding,ALR inh
CCCCn1c(N)c(N(CC(C)C)C(=O)CCCSc2nncs2)c(=O)[nH]c1=O,15.6,19.4,4.7,-1.2,-1.4,8.8%,0.676,i,5.2
O=C(Nc1cc(Br)ccc1O)c1cc(-c2ccco2)on1,-15.8,-8.6,3.1,0.4,1.8,x,0.657,i,x
Cc1noc(C)c1NC(=O)N(C)C[C@H]1Oc2cc(C#CCN(C)C)ccc2S(=O)(=O)N([C@@H](C)CO)C[C@H]1C,1.0,8.4,3.7,-0.1,x,x,x,i,x
COc1ccc(-c2nc(C#N)c(NCCc3ccccc3)o2)cc1OC,x,x,x,x,1.1,23.7%,0.691,x,56.9
Cc1ccc(C=Nc2cc([N+](=O)[O-])ccc2C)s1,x,x,x,x,-2.9,x,0.661,x,-9.3
COc1cccc(CC(NC(C)=O)C(=O)NC2CCN(C(=O)NCc3ccccc3)CC2)c1 (centres undefined),7.7,15.3,-0.4,1.9,-2.9,x,0.679,i,x
N#CC1=C(SCc2ccccc2)NC(=O)CC1c1ccc(O)cc1 (centres undefined),-5.2,-3.2,11.1,11.3,-1.0,2.6%&-8.8%,0.649,i,-5.4
CC(C)CC1Nc2ncnc(N3CCOCC3)c2N(Cc2ccc(Br)cc2)C1=O (centres undefined),-29.0,-36.4,-8.9,1.3,5.3,x,0.69,i,0.4
Cc1ccccc1NC(=O)Cc1nc(-c2ccc3ccccc3c2)cs1,x,x,x,0.6,2.2,x,0.719,i,-1.4
COc1ccc(N2CCOCC2)c(NC(=O)c2ccc(Br)o2)c1,-30.6,-32.2,-4.0,-1.6,5.8,x,0.731,i,68.9
COc1ccc(Nc2nc(-c3ccc(OC)cc3)c(CCC(=O)O)s2)cc1,-1.6,-2.5,2.2,-1.7,-0.4,-3.3%,0.651,i,25.0
CCOc1ccc(NC(=O)CN(C)C(=O)CN2C(=O)c3ccc([N+](=O)[O-])cc3C2=O)cc1OCC,13.6,21.4,-1.5,7.5,-0.5,7.1%,0.67,i,x
O=C1c2cccc([N+](=O)[O-])c2C(=O)N1c1ccccc1,3.6,12.1,-1.0,1.7,3.0,x,0.737,i,-7.9
CC1CC(C)CN(CCCNS(=O)(=O)c2ccc3c(c2)CCN3C(=O)C2CC2)C1 (centres undefined),5.0,7.1,-2.4,1.0,3.8,x,0.696,i,-2.2
CNC[C@@H]1Oc2c(NS(=O)(=O)c3ccccc3)cccc2C(=O)N([C@H](C)CO)C[C@@H]1C,-0.7,0.9,0.0,-1.3,x,x,x,i,x
CCC(=O)N(C)C[C@H]1Oc2ncc(-c3ccccc3C)cc2C(=O)N([C@@H](C)CO)C[C@@H]1C,2.7,6.8,-1.7,-3.5,x,x,x,i,x
Oc1ccccc1C1=Nc2ncnn2C(c2ccc(F)cc2)C1 (centres undefined),x,x,x,x,6.2,6.5%,0.727,x,1.5
Cc1[nH]n(-c2ccccc2)c(=O)c1C(C[N+](=O)[O-])c1ccccc1Cl (centres undefined),x,x,x,x,-0.6,3.4%,0.736,x,-19.7
C=CCn1c(COc2cccc3ccc(C)nc23)nnc1SCC(=O)O,x,x,x,x,2.0,11.6%,0.643,x,-9.7
O=C(CN1C(=O)NC2(CCCC2)C1=O)Nc1ccccc1C(F)(F)F,1.1,7.0,-2.1,-1.3,3.6,x,0.706,i,4.0
Cc1ccc(S(=O)(=O)N[C@H]2C=C[C@@H](CC(=O)NCCc3ccncc3)O[C@@H]2CO)cc1,-2.1,-1.4,-1.8,-1.6,x,x,x,i,x
CCc1ccc2c(COC(=O)C3CSC4(C)CCC(=O)N34)cc(=O)oc2c1 (centres undefined),-3.9,-10.0,3.7,0.8,0.9,-0.5%,0.681,i,4.8
CC1(C(=O)NS(=O)(=O)c2cccc(Cl)c2)CCN1C(=O)C1(c2ccc(Cl)cc2)CC1 (centres undefined),-5.2,15.8,1.7,-5.3,1.2,x,x,i,x
Cc1cccc(N=Nc2cnc(N)s2)c1,4.4,3.8,7.1,-5.2,3.5,-6.1%,0.625,i,99.4*
O=C(CN(Cc1ccccc1)C(=O)c1csnn1)NCCc1ccccc1,1.6,-3.7,1.0,-24.4,5.1,x,0.696,i,2.2

# Next part (7 carried over from the part before).
SMILES,Ecoli rRNA inh,Ecoli rRNA inh OD600,Ecoli rRNA inh RFP,AF4-AF9 inh,HNF4A DNA FP,Vif TR-FRET,E coli growth,FGF22 binding,ALR inh
C=CCn1c(COc2cccc3ccc(C)nc23)nnc1SCC(=O)O,x,x,x,x,2.0,11.6%,0.643,x,-9.7
O=C(CN1C(=O)NC2(CCCC2)C1=O)Nc1ccccc1C(F)(F)F,1.1,7.0,-2.1,-1.3,3.6,x,0.706,i,4.0
Cc1ccc(S(=O)(=O)N[C@H]2C=C[C@@H](CC(=O)NCCc3ccncc3)O[C@@H]2CO)cc1,-2.1,-1.4,-1.8,-1.6,x,x,x,i,x
CCc1ccc2c(COC(=O)C3CSC4(C)CCC(=O)N34)cc(=O)oc2c1 (centres undefined),-3.9,-10.0,3.7,0.8,0.9,-0.5%,0.681,i,4.8
CC1(C(=O)NS(=O)(=O)c2cccc(Cl)c2)CCN1C(=O)C1(c2ccc(Cl)cc2)CC1 (centres undefined),-5.2,15.8,1.7,-5.3,1.2,x,x,i,x
Cc1cccc(N=Nc2cnc(N)s2)c1,4.4,3.8,7.1,-5.2,3.5,-6.1%,0.625,i,99.4*
O=C(CN(Cc1ccccc1)C(=O)c1csnn1)NCCc1ccccc1,1.6,-3.7,1.0,-24.4,5.1,x,0.696,i,2.2
COc1cccc(C=NNC(=O)CCCC(=O)NN=Cc2cccc(OC)c2)c1,-2.1,0.6,-0.2,-0.2,1.6,-4.0%,x,i,x
COc1ccccc1-c1ccc(C2[C@H]3CNC[C@@H]2N3S(=O)(=O)c2ccc(F)cc2)cc1 (some centres undefined),2.6&-56.6,4.7&-78.4,6.4&-15.1,-1.4,x,x,x,i,x
Cn1c(=O)c(C(=O)CN2CCCCCC2)c(N)n(Cc2ccccc2)c1=O,9.4,-0.1,2.7,5.2,0.2,12.2%,0.695,i,-0.5
CCN(CC(=O)Nc1c(F)cccc1F)C(=O)C1CCCO1 (centres undefined),7.6,11.1,-0.3,2.3,5.1,1.0%,x,i,x
CC(OC(=O)c1cccnc1)C(=O)NCc1ccc2c(c1)OCO2 (centres undefined),x,x,x,x,5.7,68.9%,0.671,x,-6.1
CN(C)c1ccc(NC(=O)CN2CCC(C(=O)c3ccc(F)cc3)CC2)cc1,x,x,x,12.1,-1.1,6.3%,0.71,i,x
COc1ccccc1-c1oc2ccccc2c1C#CCCO,x,x,x,x,4.0,x,0.787,x,9.5
O=C(Cc1ccccc1)Nc1ccccc1N1CCCC1,x,x,x,x,0.9,x,0.697,x,53.4
CC1(C)OC(=O)C=C[C@]2(C)[C@H]3CC[C@@]4(C)[C@H](C(=O)O)OC(=O)[C@H]5O[C@]54[C@]3(C)C(=O)C[C@@H]12,2.8,-8.1,0.2,0.7,-1.2,x,0.823,i,0.0
COc1ccc(NC(=O)N(C)C[C@H]2Oc3ccc(NC(=O)Nc4ccc5c(c4)OCO5)cc3C(=O)N([C@H](C)CO)C[C@@H]2C)cc1,2.1&1.1,5.6&3.2,-0.8&-1.1,2.9&1.9,8.0,x,x,i,x
CCn1c(N2CCC(Cc3ccccc3)CC2)nc2c1c(=O)[nH]c(=O)n2C,x,x,x,x,0.5,-5.1%,0.696,x,-8.7
COC(=O)NCCOc1cc(C)ccc1C,0.8,-3.9,-5.1,-4.6,-1.7,3.2%,0.664,i,4.9
CCc1ccc(-n2c(SCC(=O)Nc3cc(C)[nH]n3)nc3[nH]ncc3c2=O)cc1,x,x,x,x,-2.1,1.5%,0.759,x,-7.5
CN(C)c1nc(Oc2ccc(=O)n(C)n2)nc(N2CCOCC2)n1,x,x,x,x,-1.6,-1.5%,0.679,x,-1.3
CC(C)Oc1cc(F)ccc1-c1cc(C(=O)Nc2ccc(C(C)C)cc2)[nH]n1,4.6,7.4,-2.5,-3.8,-0.1,x,x,i,x
COc1cc(OC)c2cc(C(=O)N/N=C/c3ccccc3O)[nH]c2c1,-0.1,7.7,0.4,-0.6,1.1,x,x,i,-10.8
CCSC1=NCCN1C(=O)c1c(-c2ccccc2Cl)noc1C,-2.7,5.2,0.0,0.0,0.1,-6.5%,0.689,i,-0.5
Cc1noc(C)c1NC(=O)Nc1ccc2c(c1)C(=O)N([C@@H](C)CO)C[C@H](C)[C@@H](CN(C)S(=O)(=O)c1cccs1)OCCCC[C@H](C)O2,-0.4,6.2,-0.6,-2.8,x,x,x,i,x
C=CCN(C(=O)c1csnn1)C(C(=O)NCc1ccccc1)c1c(F)cccc1Cl (centres undefined),x,x,x,1.9,1.7,-11.7%,0.638,i,-0.1
CN1C(=O)c2cc(NC(=O)Nc3cccc(C#N)c3)ccc2OC[C@H]2O[C@@H](CC(=O)NCc3ccc(Cl)cc3)CC[C@@H]21,-6.2,-17.9,-1.2,1.4,x,x,x,i,x
CC(Sc1ccc(Cl)cc1)C(=O)NCC(c1ccco1)N1CCCCC1 (centres undefined),-7.3,-6.7,3.6,3.2,0.8,6.7%,0.651,i,3.3
COc1ccc(Cn2c(CCC(=O)O)nc3cccnc32)cc1,x,x,x,x,2.6,29.7%,0.741,x,-6.2
O=C(N[C@@H]1CC[C@H](CCn2cc(-c3ccccn3)nn2)O[C@@H]1CO)c1cccnc1,0.5,0.6,-1.5,0.7,x,x,x,i,x
Cc1c(C)c2ccc(OCC(=O)NCCc3c[nH]c4ccccc34)cc2oc1=O,1.4,0.8,-13.1,-1.8,-0.3,x,x,i,x
CC(C)[N+](C)(C)CC#CC(O)(c1ccccc1)c1ccccc1,x,x,x,-1.8,1.9,x,0.678,i,-3.4
CCCN(C(=O)COC(=O)CNC(=O)c1ccc2ccccc2c1)c1c(N)n(Cc2ccccc2)c(=O)[nH]c1=O,5.0,0.1,5.2,4.3,1.2,-8.5%,0.631,i,-10.4
COc1cc2nc(CN(C)Cc3ccc(Cl)cc3)[nH]c(=O)c2cc1OC,9.6,4.4,8.2,-3.0,3.9,-7.1%,0.718,i,-1.0
CCCC#Cc1ccc([C@@H]2[C@@H](C#N)N(C(=O)CN3CCOCC3)[C@H]2CO)cc1,2.9,19.0,-2.3,0.8,x,x,x,i,x

# ALR inh, what is marked active above.
SMILES | Ecoli rRNA inh | Ecoli rRNA inh OD600 | Ecoli rRNA inh RFP | AF4-AF9 inh | HNF4A DNA FP | Vif TR-FRET | ALR inh
Cc1cccc(N=Nc2cnc(N)s2)c1 | 4.4 | 3.8 | 7.1 | -5.2 | 3.5 | -6.1% | 99.4*

# From PubChem
